Compound activity (PubChem)
HPGD inh: HPGD (human) dehydrogenase inhibition; P15428; purified HPGD, NADH fluorescence kinetic, PGE2 substrate; Potency, µM, inactives show at the highest dose activity change, negative = inhibition, most hits filed as inhibitors; 4.3% of 150,000 active; AID 894; active = well fitted inhibition curve with a large enough effect (not every such curve was filed as active); inconclusive = small, poorly fitted or top-dose-only effect, or another doubt; inactive = no such curve, though single readings can be large or run the other way;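 note: top concentration of the series not given in the record; plate controls included wells without enzyme; inactives centre near -10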
Target sequence (P15428 whole entry, looked up): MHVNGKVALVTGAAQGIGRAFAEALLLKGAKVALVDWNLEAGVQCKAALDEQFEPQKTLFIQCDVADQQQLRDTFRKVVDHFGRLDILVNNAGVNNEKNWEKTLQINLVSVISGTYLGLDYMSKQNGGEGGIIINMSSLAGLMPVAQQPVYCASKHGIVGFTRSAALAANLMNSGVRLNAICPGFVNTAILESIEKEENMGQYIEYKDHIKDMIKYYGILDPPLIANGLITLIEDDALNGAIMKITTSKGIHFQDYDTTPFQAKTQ
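20 nM HPGD preincubated 15 min at room temperature with compound in 50 mM Tris-HCl pH 8, 0.01% Tween 20. Started with 1 mM NAD+ and 30 uM prostaglandin E2; NADH fluorescence (360/450 nm) read 5 times over 30-s intervals, last minus first.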
* marks the source's active call; other numbers are inactive results; ? = inconclusive; & = joins results of further samples. % is set by controls: 0 for no effect and ±100 for the full control effect; potency is the fitted concentration of half-maximal effect.

SMILES | HPGD inh
O=C(/C=C/c1ccccc1F)c1ccoc1 | -27%
COc1ccc(S(=O)(=O)Cc2ccc(C(=O)NCc3ccc(F)cc3)o2)cc1 | -16%
CCCOCC1CC2(SC(=Nc3ccc(C)cc3)NC2=O)C(=O)O1 (configuration not stated) | -6%
CC(C)OC(=O)CC(NC(=O)OC(C)(C)C)c1ccccc1 (configuration not stated) | -7%&-6%
N#CC1=C(SCc2ccccc2)NC(=O)CC1c1ccc(O)cc1 (configuration not stated) | -8%
Cc1nn(-c2ccccc2)c(Cl)c1/C=N/NC(=O)c1ccccc1NS(=O)(=O)c1cccs1 | ?
Cc1c(-c2cccc(NC(=O)c3cccs3)c2)nc2ncccn12 | ?
CCOc1ccccc1N/C(=N/c1nc(C)cc(C)n1)NC(=O)Nc1ccc(Cl)c(Cl)c1 | -9%
CCCCC[C@H](O)/C=C/C=C\CCCCCCCC(=O)O | -3%
COCCNC(=O)c1cc2ncc(Br)cn2n1 | -25%
Cn1cccc1Cc1nnc(SCC(=O)NC2CCCCC2)n1-c1ccc(F)cc1 | -8%
CC12CCCCC1N(O)C(=O)C(=O)N2O (configuration not stated) | -6%
CC1CCCN(C(=O)CN2C(=O)c3ccccc3C2=O)C1 (configuration not stated) | -13%
CCC(=O)N1CCc2cc(S(=O)(=O)NCCCN3CCN(Cc4ccccc4)CC3)ccc21 | -18%
Cc1cc(NC(=O)CCC(=O)N(c2ccc(F)cc2)C(C(=O)NC2CCCC2)c2ccncc2)no1 (configuration not stated) | -11%
O=c1c2ccccc2nc2n1CCCCN2 | ?
COCCn1c(=O)c(-c2ccc(Cl)cc2)nc2cnc(OC)nc21 | -27%
Cc1cccc(OCC2=NS(=O)(=O)c3ccccc3N2)c1 | -1%
CC(C)c1nnc(NC(=O)CC(=O)Nc2ccccc2C(=O)O)s1 | -15%
CCOC(=O)c1c(C)[nH]c(C(=O)NNC(=O)c2ccccc2)c1C | -7%

Molecules from the list above with an aryl methoxy group, in the order listed:
SMILES | HPGD inh
COc1ccc(S(=O)(=O)Cc2ccc(C(=O)NCc3ccc(F)cc3)o2)cc1 | -16%
COCCn1c(=O)c(-c2ccc(Cl)cc2)nc2cnc(OC)nc21 | -27%

(continued)
SMILES | HPGD inh
Cn1cc(Br)c(C(=O)Nc2sc3c(c2C(N)=O)CCC3)n1 | ?
Cc1cccc(N2CCN(C(=O)c3ccc(CS(=O)(=O)c4ccccc4C)o3)CC2C)c1 (configuration not stated) | -1%
CC1(C)CC(=O)C(C=Nc2ccccc2Sc2ccccc2)=C(O)C1 | -25%
O=C(Nc1ccc2c(c1)OCO2)N1CCN(c2ccccc2Cl)CC1 | -13%
CC(=O)OC1c2ccccc2C(=O)N1Cc1ccccc1Cl (configuration not stated) | 18µM*
CCOCC(=O)Nc1cccc(Br)c1 | 25µM*
CN1C(=O)CC(N2CCN(CCN=CC3=C(O)CC(C)(C)CC3=O)CC2)C1=O (configuration not stated) | -8%
COCCCNC(=O)c1cc(C)nc2ccc(F)cc12 | -22%
COc1ccc(OC)c(S(=O)(=O)N2CCN(c3c(C)cccc3C)CC2)c1 | -5%
CCc1ccc(/C=c2\s/c(=C\C(=O)C(C)(C)C)[nH]c2=O)cc1 | -29%
COC(=O)c1cccc(COC(=O)c2cccnc2SC)c1 | -7%
CC(=O)NCC(=O)NC(Cc1ccccc1)C(N)=O (configuration not stated) | -11%
COc1ccccc1C(=O)Nc1ccc2c(c1)nc(CCNC(C)=O)n2C | -5%
CC=O | -3%
CCNS(=O)(=O)c1ccc(NC(=O)c2cccnc2)cc1 | -13%
CCS(=O)(=O)N1CCN(C2Cc3ccccc3C2)CC1 | -7%
COc1ccc(Cl)cc1NC(=O)c1cc(-c2ccccc2O)n[nH]1 | 1.4µM*
O=C(COC(=O)/C=C/c1ccco1)Nc1ncc(Cl)cc1Cl | -3%
CCCCCNCc1cccc(Br)c1 | -2%
CC(C)Cn1c(N)c(C(=O)COC(=O)c2cc(C(F)(F)F)nc3ccccc23)c(=O)n(C)c1=O | ?
COCCNC(=O)CN(Cc1ccc(Cl)cc1)S(C)(=O)=O | -14%
CS(=O)(=O)N(CC(=O)N/N=C/c1cc([N+](=O)[O-])ccc1Cl)c1ccccc1 | -9%
CN(C)C(=O)C(=O)c1c(-c2ccccc2)cc2ccccn12 | -9%
CCc1ccc(NS(=O)(=O)c2ccc3[nH]cc(C(=O)N(C)Cc4ccco4)c(=O)c3c2)cc1 | -15%
COc1ccc(NC(=S)N(CCc2c(C)[nH]c3ccc(C)cc23)Cc2cccs2)cc1 | -12%
CCc1ccc(NC(=O)C2CC(=O)Nc3ncnn32)cc1 (configuration not stated) | -9%
C=CCc1c(C)nc(SC)nc1Nc1ccc(C)cc1 | -14%
CCNC(=O)CSc1nnc(C2CC2)n1-c1ccccc1 | -9%
COC(=O)c1cc(Br)c(=O)n(-c2ccccn2)c1 | -8%
CCOc1ccccc1C(=O)N(CCC(=O)OC)c1ccccn1 | -1%
C=CCNC(=O)C1CCCN(S(C)(=O)=O)C1 (configuration not stated) | -1%
O=C1N=C(N2CCC(Cc3ccccc3)CC2)S/C1=C/c1cn[nH]c1-c1ccccc1 | 25µM*
Nc1ccccc1N1CCN(C(=O)c2ccccc2)CC1 | -3%
Cc1cccc(NC(=O)CCCSc2nc3ccccc3[nH]2)c1 | -13%
CCOC(=O)C(C(=O)OCC)c1cc(Br)c2noc3c2c1C(=O)c1ccccc1-3 | ?
CCOc1ccccc1CN1CCC(O)CC1 | -1%
CCCCn1c(CN2CCN(CCO)CC2)nc2ccccc21 | 6%
Cc1ccc(CN2CCN(c3ncccn3)CC2)o1 | -13%
CCOC(=O)c1c(NC(=O)Cn2nc(C(F)(F)F)cc2C)sc2c1CCC2 | ?
CCCSc1nc2c(c(=O)n1-c1ccc(OCC)cc1)SCC2 | -13%

Given with tabs: part of the list above.
mol	HPGD inh
Cn1cc(Br)c(C(=O)Nc2sc3c(c2C(N)=O)CCC3)n1	?
CCC(=O)N1CCc2cc(S(=O)(=O)NCCCN3CCN(Cc4ccccc4)CC3)ccc21	-18%

Remaining list, next part
SMILES | HPGD inh
CC(CCc1ccccc1)NC(=O)COC(=O)C1CCC(C(C)(C)C)CC1 (configuration not stated) | -14%
Cc1nc(SCC(=O)NC2CCCC2)[nH]c(=O)c1Cc1ccccc1 | -10%
COc1ccc(OC)c(NS(=O)(=O)c2ccc(N3CCCC3=O)cc2)c1 | -13%
COc1ccc(CCNC(=O)CCCN2C(=O)c3ccccc3C2=O)cc1OC | -14%
O=C(CSc1ncn[nH]1)c1ccc2c(c1)OCO2 | -11%
Cc1cccc(C)c1OCC(=O)OCC(=O)c1ccc2c(c1)NC(=O)CO2 | -26%
CC(CN1CCCCC1)OC(=O)C(C)(c1ccccc1)c1ccccc1 (configuration not stated) | -9%
COc1cccc(-n2c(SCC(=O)NCc3ccco3)nnc2-c2c[nH]c3ccccc23)c1 | -12%
CC1(C)NC(=O)N(CCCCSc2ccc(Cl)cc2)C1=O | -7%
O=C(COC(=O)C1COc2ccccc2O1)Nc1ccc2c(c1)CCC2 (configuration not stated) | -6%
O=C(O)CSc1ccc2ccccc2n1 | -18%
O=C(c1ccco1)N1CCC2(CC1)CCN(c1ccc(-c3ccccc3)cc1)CC2 | -9%
CCC(C)Nc1nc(OC)nc(N(C)C#N)n1 (configuration not stated) | -9%
COC(=O)[C@@H]1C2CCC(C(=O)Nc3ccccc3)(CC2)[C@@H]1C(=O)OC | -13%
O=C(CCCNS(=O)(=O)c1cccc2nsnc12)NCc1ccc(F)cc1 | -17%
Cc1ccc(-n2c(=O)[nH]cc(C(=O)N3CCc4ccccc43)c2=O)cc1C | -5%
O=C(NCc1ccco1)C(=O)NCC1OCCN1S(=O)(=O)c1ccccc1 (configuration not stated) | -10%
C/C(N)=C(/C#N)C(=O)COC(=O)CC12CC3CC(CC(C3)C1)C2 | -13%
COc1ccccc1N=c1oc2cc(O)ccc2cc1C(=O)NCC1CCCO1 (configuration not stated) | ?
CCCCc1cc(=O)oc2cc(OCc3cc(OC)c(OC)c(OC)c3)c(Cl)cc12 | -23%
COc1ccc(F)cc1S(=O)(=O)Nc1ccc2c(c1)OCCO2 | -18%
COC(=O)c1[nH]c2ccc(Cl)cc2c1NC(=O)CCN1CCN(C2CCCCC2)CC1 | -9%
Cc1cc(C)nc(SCc2cc(=O)c(OC(=O)c3cccc([N+](=O)[O-])c3)co2)n1 | -4%
CN(C)S(=O)(=O)c1ccc(C(=O)Nc2ccc(CCC(=O)N3CCCC3)cc2)cc1 | 16µM*
CCn1c(=O)cc(SCC(=O)N2CCN(Cc3ccc4c(c3)OCO4)CC2)c2ccccc21 | -8%
CCCCOc1ccc(C(=O)O)cc1 | -17%
COc1ccccc1N(CC(=O)NC1CCCCC1)C(=O)c1csnn1 | -16%
COc1ccc(CC(N)C(=O)N[C@H]2[C@@H](O)[C@H](n3cnc4c(N(C)C)ncnc43)O[C@@H]2CO)cc1 (some centres not stated) | -5%
CC1CCCN(S(=O)(=O)c2ccc(Br)s2)C1 (configuration not stated) | -28%
c1ccc(SCCOCCn2cncn2)cc1 | -1%
NS(=O)(=O)c1ccc(NC(=S)N2CCN(c3ccccc3Cl)CC2)cc1 | -4%
CCOC(=O)N1CCN(c2c(N3CCN(c4ccccn4)CC3)c(=O)c2=O)CC1 | -2%
O=C(COC(=O)/C=C/c1ccc(F)cc1)Nc1cc(C(F)(F)F)ccc1N1CCOCC1 | -13%
Brc1cc2c(cc1COc1ccc(-c3nn[nH]n3)cc1)OCO2 | 25µM*
COCCCNC(=S)N(Cc1ccccc1)Cc1nc2ccccc2c(=O)[nH]1 | -17%
C(=N\NC(=Nc1ccccc1)c1ccccn1)/c1ccccn1 | -19%
N/C(Cc1ccc(Cl)cc1)=N\OC(=O)c1cccc2ccccc12 | ?
Cc1cc(=O)n2nc(N3CCCC(C(=O)NCc4ccc5c(c4)OCO5)C3)sc2n1 (configuration not stated) | -2%
COC(=O)c1ccc(Cl)c(NS(=O)(=O)c2ccc3c(c2)OCCO3)c1 | -10%
CN(C)c1ccc(C(=O)c2ccc(N(C)C)c(N)c2)cc1N | -10%

HPGD inh: hit marks shown above
SMILES | HPGD inh
CC(=O)OC1c2ccccc2C(=O)N1Cc1ccccc1Cl (configuration not stated) | 18µM*
CCOCC(=O)Nc1cccc(Br)c1 | 25µM*
COc1ccc(Cl)cc1NC(=O)c1cc(-c2ccccc2O)n[nH]1 | 1.4µM*
O=C1N=C(N2CCC(Cc3ccccc3)CC2)S/C1=C/c1cn[nH]c1-c1ccccc1 | 25µM*
CN(C)S(=O)(=O)c1ccc(C(=O)Nc2ccc(CCC(=O)N3CCCC3)cc2)cc1 | 16µM*
Brc1cc2c(cc1COc1ccc(-c3nn[nH]n3)cc1)OCO2 | 25µM*

(list continues)
SMILES | HPGD inh
Cn1c(-c2cc(Br)ccc2O)n[nH]c1=S | 14µM*
CCCCn1c(=O)n(CC(=O)NCc2ccc(C)cc2)c(=O)c2c1nc(CO)n2CCC | -12%
Cc1occc1C(=O)Nc1ccc(Br)cc1F | -16%
O=C(c1ccccc1Oc1ccccc1)N1CCN(c2ccccc2F)CC1 | -3%
CCCc1nn(-c2cc(Cl)ccc2OC)c2c1C(=O)CC(C)(C)C2 | -12%
CCOc1ccc(/C(O)=C2/C(=O)C(=O)N(CC3CCCO3)C2c2ccc(C)o2)cc1 (configuration not stated) | -20%
C/C(=N\N=C(N)N)c1cccc([N+](=O)[O-])c1 | -8%
COc1cc(C(=O)N(Cc2ccc(N(C)C)cc2)C2CCS(=O)(=O)C2)cc(OC)c1OC (configuration not stated) | 1%
Cc1ccc2nsnc2c1S(=O)(=O)N(CCO)Cc1cc2cc3c(cc2[nH]c1=O)OCCO3 | -10%
Cc1occc1C(=O)Nc1ccccc1C(=O)O | -11%
CCC(CC)C(=O)Nc1cccc(C(=O)N2CCCC2)c1 | -4%
O=C1C(=Cc2ccc(Br)o2)C(=O)c2ccccc21 | 32µM*
CCN(CC)c1ccc(C=Nc2ccccc2)c(O)c1 | -28%
CCOC(=O)C1=C(C)NC(C)=C(C(=O)OC)[C@@H]1c1cccc([N+](=O)[O-])c1 | 4%
COc1ccc(C2=NN(C(C#N)c3ccc(OC)cc3)C(c3ccccc3)C2)cc1 (configuration not stated) | -6%
CC(Sc1nc(-c2ccccc2)cc(=O)[nH]1)C(=O)O (configuration not stated) | -12%
CC(=O)CSCc1ccccn1 | -7%
CCCN1CCN(C(=O)CCCn2c(C)c3cnn(-c4ccccc4)c(=O)c3c2C)CC1 | -7%
CCCN(CCC)S(=O)(=O)c1ccc(NC(=O)C2CCCO2)cc1 (configuration not stated) | -11%
CC(=O)NCCc1cc2ccc(C)cc2[nH]c1=O | -20%

Shown with tabs: part of the list above.
mol	HPGD inh
Cc1ccc2nsnc2c1S(=O)(=O)N(CCO)Cc1cc2cc3c(cc2[nH]c1=O)OCCO3	-10%
COc1cc(C(=O)N(Cc2ccc(N(C)C)cc2)C2CCS(=O)(=O)C2)cc(OC)c1OC (configuration not stated)	1%
Cn1c(-c2cc(Br)ccc2O)n[nH]c1=S	14µM*
CCCc1nn(-c2cc(Cl)ccc2OC)c2c1C(=O)CC(C)(C)C2	-12%

(next part)
SMILES | HPGD inh
CCC(NC(=O)C1CCC1)c1ccccc1 (configuration not stated) | -11%
Cc1ccc(NS(=O)(=O)c2ccc(CCC(=O)NC3CC3)cc2)cc1 | 0%
CC(=O)/C(CN1CCCCC1)=N\O | -7%
O=C(NC1CCCCC1)c1ccc(CS(=O)(=O)Cc2ccccc2F)o1 | 0%
CCC(=O)Nc1cc(-c2nn(C)c(=O)c3ccccc23)ccc1N1CCOCC1 | -12%
Cc1cnn(C(=S)NCc2ccc(Cl)cc2)c1 | -21%
C[C@@H]1CC=C[C@@H]2[C@H]1C(=O)N(Cc1ccccc1)[C@H]2c1ccccc1Br | -11%
Cc1ccc(SCc2ccc(C(=O)Nc3cccc([N+](=O)[O-])c3)cc2)cc1 | -11%
COc1ncc2nc(-c3ccc(F)cc3)c(=O)n(CCC#N)c2n1 | ?
O=C(Cn1c(=O)c2c(ncn2Cc2ccccc2)n(Cc2ccccc2)c1=O)N1CCCC1 | ?

Not all compounds are listed; rates above refer to the full screens.
